# Compound activity: PubChem BioAssay, National Center for Advancing Translational Sciences (NCATS)
# gsp antagonist: antagonists of gsp mutant (McCune-Albright syndrome). gsp-mutant cells, cAMP HTRF, 30 min; control for the full effect not named in the record. Potency, µM (highest dose often 76.9 µM), for inactives: at the highest dose activity change, negative = inhibition, most hits filed as inhibitors. actives 0.4% (n = 340,000). AID 624288; active = falling curve of any shape with a large fitted effect; inconclusive = falling curve, mostly with a smaller effect; inactive = flat or rising curve; cell line not stated here;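 also: intracellular cAMP measured with PDE inhibitor Ro 20-1724 present during compound exposure; potency is read from the fitted curve at half-maximal effect; % is scaled to controls: 0 for no effect and ±100 for the full control effect; nearly all actives have a fitted effect of over 65% in size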
#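 Measurement of cellular cAMP by homogeneous time-resolved fluorescence following a 30 min compound exposure at 37C. The PDE inhibitor […] was present throughout; the assay buffer was DPBS with 0.05% BSA and 0.005% Tween 20.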
# ClpP mod: qHTS Assay for Activators of ClpP; purified B. subtilis ClpP, FRET peptide cleavage, 20 min; Potency, µM (titrated, usually from 57.5 µM), without a hit: at the highest dose activity change, negative = active; actives 1.9% (n = 340,000); AID 651965, 2013; active = well fitted falling curve with a large enough effect; inconclusive = small, poorly fitted or top-dose-only effect; inactive = no such curve, though single readings can be large or run the other way; also: potency is read from the fitted curve at half-maximal effect; the source files actives as falling curves though it sought activators and does not explain the sign; nearly all actives have a fitted effect of over 65% in size; many hits overshoot -100%
#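 Buffer: 100 mM Tris/HCl pH8, 100 mM KCl, 0.05% low protease BSA, 2.5% glycerol, 0.01% Tween-20. ClpP 10 microg/mL final; 20 min RT; delta FRET normalized to ADEP and DMSO controls.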
# D2 potentiator: positive allosteric modulators of human D2 dopamine receptor; P14416; DiscoveRx D2 beta-arrestin cells, luminescence, 90 min; 100% = 57 uM dopamine signal; potentiation, % (concentration not given with the values); actives 0.23% (n = 360,000); AID 624464; active = potentiation of 50% or more; inconclusive = 30% to 50%; inactive = 30% or less;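 also: compound concentration not given in the record; tested on top of an EC20 dose of dopamine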
#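 PathHunter D2 cells, attached overnight at 37 deg C, received compound in DMSO plus dopamine at EC20 (50 nM final) for 90 min at 37 deg C. Beta-arrestin recruitment was read as luminescence after 1 h with detection reagent at ambient temperature.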
# TRPV1 potentiator: human TRPV1 potentiation. Q8NER1. TRPV1-expressing cells, Fluo-8 calcium influx, capsaicin EC20 potentiation; host cell line not named in the record; control for the full effect not named in the record. potentiation, % at 8.33 µM. actives 0.02% (n = 320,000); active means potentiation above 80%; inconclusive means 30% to 80%; inactive means below 30%; also: 0% is about no effect
# Target sequence (Q8NER1 whole entry, looked up): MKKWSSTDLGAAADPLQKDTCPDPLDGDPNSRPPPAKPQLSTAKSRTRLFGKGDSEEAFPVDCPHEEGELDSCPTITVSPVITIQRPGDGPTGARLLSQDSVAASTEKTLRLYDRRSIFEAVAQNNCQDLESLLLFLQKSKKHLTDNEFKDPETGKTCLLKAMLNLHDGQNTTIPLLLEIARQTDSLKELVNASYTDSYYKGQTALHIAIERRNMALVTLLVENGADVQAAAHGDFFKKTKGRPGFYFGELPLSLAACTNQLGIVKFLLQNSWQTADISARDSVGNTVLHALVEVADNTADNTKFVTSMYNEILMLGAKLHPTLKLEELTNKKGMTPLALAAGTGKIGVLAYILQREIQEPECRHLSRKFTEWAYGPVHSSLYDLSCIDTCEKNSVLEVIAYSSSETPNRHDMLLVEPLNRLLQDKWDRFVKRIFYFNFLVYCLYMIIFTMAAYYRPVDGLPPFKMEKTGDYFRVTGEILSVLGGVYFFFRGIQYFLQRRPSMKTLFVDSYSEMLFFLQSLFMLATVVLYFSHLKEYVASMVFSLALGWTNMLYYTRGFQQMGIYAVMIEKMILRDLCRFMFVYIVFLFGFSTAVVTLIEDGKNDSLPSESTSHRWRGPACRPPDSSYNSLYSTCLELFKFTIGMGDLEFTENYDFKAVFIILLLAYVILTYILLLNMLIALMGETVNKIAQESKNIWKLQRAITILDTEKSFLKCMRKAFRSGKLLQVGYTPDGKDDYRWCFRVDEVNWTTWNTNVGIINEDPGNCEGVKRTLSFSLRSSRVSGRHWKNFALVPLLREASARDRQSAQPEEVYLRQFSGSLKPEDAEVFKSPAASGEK
#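 Fluo-8 calcium influx in TRPV1-expressing cells, kinetic read (ex 480/em 520 nm). Compound added and read 3 min for agonist activity, followed by capsaicin at EC20 final and 2 min further read for enhancement.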
# gsp agonist: agonists of gsp mutant (McCune-Albright syndrome). Potency, µM (highest dose often 76.9 µM), for inactives: at the highest dose activation (cAMP increase), hits mostly activators. gsp mutant cells, cAMP HTRF, 30 min; control for the full effect not named in the record. actives 0.13% (n = 340,000). AID 624287; active = well fitted activation curve with a large enough effect; inconclusive = small, poorly fitted or top-dose-only effect, or another doubt; inactive = no such curve, though single readings can be large or run the other way; cell line not stated here;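 also: phosphodiesterase inhibitor Ro 20-1724 added with compounds to block cAMP breakdown; potency is read from the fitted curve at half-maximal effect; nearly all actives have a fitted effect of over 60% in size; about a fifth of the inactives were tested at one dose only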
#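 Cells in DMEM/10% FBS with G418 were pretreated with compounds in DMSO plus […] (300 uM stock) for 30 min at 37C. cAMP was measured by HTRF (cAMP-d2 plus anti-cAMP antibody-K) after 30 min at room temperature.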
# Menin-MLL FL inh: inhibitors of human menin-MLL interaction, wild-type MLL peptide | Fluorescence polarization, fluorescein-MLL peptide displacement from menin | FP activity change, % at 61.4 µM | 290,000 tested, under 10 active; inconclusive = falling polarisation curve, or a change in total fluorescence; inactive = total fluorescence flat and polarisation flat or rising; no compound was filed as active; the % refers to the polarisation; negative = inhibition;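 also: % of control where 0% means no effect; inhibitors lower the polarisation; unlabelled MLL peptide was the positive control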
# Sfp inh: blocks B. subtilis Sfp PPTase activity; Q9F4F7; Biochemical Sfp PPTase activity, qHTS; Potency, µM, inactives show max response, negative = inhibition, actives largely listed as inhibitors; actives 3.5% (n = 310,000); active = well fitted inhibition curve with a large enough effect; inconclusive = small, poorly fitted or top-dose-only effect, or another doubt; inactive = no such curve, though single readings can be large or run the other way;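 also: the enzyme is Sfp with the accession as filed and its product quenches rhodamine fluorescence; potency is read from the fitted curve at half-maximal effect; 0% = enzyme reaction without inhibitor and -100% = no enzyme wells; top concentration of the series not given in the record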
#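 Compounds were incubated with enzyme (final 15 nM) for 15 min at room temperature before substrate addition started the reaction. Fluorescence at 525 nm excitation, 598 nm emission was recorded immediately and after 30 minutes.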
# * marks the source's active call; other numbers are inactive results; ? = inconclusive; nt = not tested or not shown; [ ] = another dose, or the depositor's remark.
SMILES,gsp antagonist,ClpP mod,D2 potentiator,TRPV1 potentiator,gsp agonist,Menin-MLL FL inh,Sfp inh
CC(=O)Nc1ccc(SCC(=O)c2c(N)n(Cc3ccccc3)c(=O)n(C)c2=O)cc1,-17%,nt,5,0,0%[15.4 µM],4.1,0%
CCOC(=O)C1(CCOC)CCN(C2C3CC4CC(C3)CC2C4)CC1 (stereo unspecified),11%,nt,-6,-6,-1%[15.4 µM],-4.2,5%
CC1(C)N=c2ccc([N+](=O)[O-])c(N)c2=[N+]1[O-],?,3.3%,11,10,-1%,-0.3,15%
CCOC(=O)N1CCN(c2cc(=O)n(-c3ccc(OC)cc3)c(=O)[nH]2)CC1,1%,-0.6%,-3,3,0%,0.7,16%
CCOc1ccccc1Oc1coc2cc(OC)ccc2c1=O,-4%,0.2%,6,-16,22%,6.4,5%
O=C(CSc1nnc(CNC(=O)c2ccccc2)o1)NCc1ccc(F)cc1,13%,32%,-9,-7,-60%[inhibitor],2.7,5%
N#Cc1ccccc1NC(=O)COC(=O)c1ccc(F)cc1F,9%,nt,-1,-1,2%[15.4 µM],nt,18%
CCOc1ccc(N2C(=O)CC(SC(=NC)Nc3ccc4c(c3)OCO4)C2=O)cc1 (stereo unspecified),-4%,-0.5%,?,14,-28%,5.0,-3%
Cc1cccc(OCCC(=O)NCC(=O)Nc2cccc(C)c2C)c1,0%,1.1%,-21,16,0%,8.4,17%
Cc1nc2ccsc2c(=O)n1-c1ccc(Cl)cc1,2%,nt,-1,-6,10%,4.4,-8%
COc1ccccc1Nc1nc(N)nc(CSc2ncccn2)n1,0%,0.0%,-8,2,-10%,1.5,13%
Cc1ccc(N/N=C(\C#N)C(N)=S)cc1C,-12%,-2.3%,-12,2,13%,0.2,56µM*
CCn1c(CC(=O)Nc2ccccc2F)nnc1SCC(=O)Nc1nnc(C)s1,21%,nt,-5,1,-9%[15.4 µM],9.0,22%
CCCC(=O)Nc1ccc(Cl)c(NC(=O)C(C)(C)C)c1,4%,-0.7%,-6,11,21%,4.6,7%
Cc1coc2c1c(C)cc1oc(=O)c(CC(=O)NCC(=O)O)c(C)c12,9%,nt,-5,-24,1%,7.1,16%
Cc1ccccc1N(C(=O)c1csnn1)C(C(=O)NC1CCCCC1)c1ccncc1 (stereo unspecified),4%,-7.0%,-9,4,-1%[15.4 µM],-7.0,4%
CC(=O)NC12CC3CC(C1)CC(C(=O)NCC(=O)Nc1c(C)cc(C)cc1C)(C3)C2,4%,1.0%,-14,-9,10%,nt,nt
CCCn1c(=O)[nH]c(=O)c2c(C(=O)OCC)cc(-c3cccs3)nc21,1%,1.2%,-20,9,-3%[15.4 µM],-7.3,-8%
Cc1ccc(C(=O)O/N=C(\N)c2cccnc2)cc1[N+](=O)[O-],6%,nt,66*,-14,12%[15.4 µM],5.4,6%
CCN(CC)c1ccc(/C=N/NC(=O)CCC(=O)NCc2ccccc2)c(O)c1,-9%,-15%,-10,-2,11%,nt,-5%
Cn1c(COc2ccc3ccccc3c2)nnc1SCC(N)=O,-4%,-1.8%,8,-7,4%,5.9,11%
COc1cccc(CNc2nc3ccccc3n2C)c1O,-5%,nt,-3,-13,1%,0.2,6%
Cc1ccc(NC(=O)C2(N(C(=O)Cn3nnnc3N)c3ccc(C)cc3)CCCCC2)cc1,-12%,-5.1%,-1,2,-16%,1.8,1%
CC1CCCC(C)N1C(=O)COC(=O)COc1ccc(C#N)cc1 (stereo unspecified),-10%,-1.6%,-3,nt,-24%,nt,nt
CC(C)c1ccc(/C=N/NC(=O)C(=O)NCCCN2CCOCC2)cc1,2%,nt,-2,-14,-29%,1.7,0%
CC(C)CNC(=O)C1CCN(c2ccc(S(=O)(=O)N3CCOCC3)cc2[N+](=O)[O-])CC1,-8%,-2.6%,-19,-14,0%,-1.9,19%
O=C(O)CN1C(=O)CSC1=S,7%,nt,29,-7,13%,13,-2%
O=C(N/C(=C\c1ccccc1)C(=O)N1CCCCC1)c1ccc(Br)o1,-22%,0.2%,-4,-17,28%,nt,12%
Clc1ccc(CNc2nnnn2-c2ccccc2)c(Cl)c1,-11%,-0.2%,-9,-11,?,1.0,2%
Cc1cc(=O)oc2cc(OCC(=O)N(C)C3CCS(=O)(=O)C3)c(Cl)cc12 (stereo unspecified),8%,3.7%,4,1,?,-6.9,17%
COc1cccc(NC(=S)Nc2ccc(O)cc2)c1,5%,1.0%,3,-21,12%,-20,20µM*
O=C1CCN(S(=O)(=O)c2ccccc2)CCN1CCOCc1ccc(C(F)(F)F)cc1,6%,-4.0%,-7,-12,22%,3.2,25%
c1ccc(C2CC(c3cccs3)Nc3nnnn32)cc1 (stereo unspecified),-12%,nt,1,-12,-4%[15.4 µM],-0.8,13%
CN(C)S(=O)(=O)c1cccc(C(=O)Nc2n[nH]c(C(F)(F)F)n2)c1,-12%,nt,8,-3,0%[15.4 µM],nt,11%
O=C(c1cccs1)N1CCN(Cc2cccc([N+](=O)[O-])c2)CC1,-12%,-0.3%,-7,-24,8%[15.4 µM],-12,-25%
O=C(CCN1C(=O)c2ccccc2S1(=O)=O)Nc1cccc(F)c1,-2%,nt,-2,16,-10%[15.4 µM],nt,nt
Cc1cnc(NC(=O)CC2CCCC2)s1,7%,0.6%,-15,4,3%,-0.6,-7%
CCc1ccc(/C=C2\Oc3c(ccc(O)c3CN3CCN(CCO)CC3)C2=O)cc1,-5%,-1.9%,-4,4,-6%,?,5%
Cn1cnnc1Sc1nc([N+](=O)[O-])nn1C,-12%,1.5%,3,-2,7%,-0.5,15%
COc1ccc(-c2nn(-c3ccccc3)cc2CN(C)CCn2ccnc2C)c(F)c1,-5%,-6.6%,-26,15,-64%[inhibitor],-1.0,-25%
O=C(Nc1ccc(Br)cc1)Nc1ccccc1F,-7%,nt,-4,-10,4%,0.6,9%
COC(=O)Cc1[nH]n(-c2ccccc2)c(=O)c1C(C)=Nc1ccccc1,nt,nt,-23,7,8%[15.4 µM],-2.9,10%
COc1cccc2c(=O)ccoc12,2%,?,-2,-1,-14%,?,12%
O=C(NCCCn1ccnc1)/C(=C/c1ccc(Cl)cc1)NC(=O)c1ccccc1,-30%,nt,-8,8,18%[15.4 µM],0.2,11%
CCCC(C)NC(=O)Cc1ccc(S(=O)(=O)N2CCOCC2)s1 (stereo unspecified),18%,0.3%,-2,-44,6%,nt,nt
COc1ccc(NC(=O)c2csc(Cc3ccccc3)n2)cc1,0%,-2.7%,-1,-12,-9%,-1.3,0%
O=C(CSc1ccc(-c2cccnc2)nn1)Nc1ccc(F)c(F)c1,-6%,1.0%,?,6,-3%,-4.0,16%
NC(=O)NC(=O)CSc1ccccc1,18%,nt,13,3,0%[15.4 µM],2.1,29%
CN(C)N1C(N)=C(C#N)C(c2ccsc2)C2=C1CC(C)(C)CC2=O (stereo unspecified),?,-1.1%,5,-11,-7%,8.0,14%
C[C@H](NCCc1ccc(O)cc1)[C@H](O)c1ccc(O)cc1,3%,0.7%,-17,-3,nt,nt,nt
CC1CCN(C(=S)c2cn(Cc3ccc(F)cc3)c3ccccc23)CC1,-4%,-0.1%,-29,17,21%,0.5,14%
CN1CCc2c1nc1ccccc1c2N=C1CCCN1Cc1ccccc1,75%[activator],3.9%,-12,2,-16%,2.0,-8%

# Rows are unselected; about 5.1% have a hit in one of these screens.
